Screening results from PubChem.
T cruzi repl: blocks replication of Trypanosoma cruzi; hit rate 1.4% among 300,000; T. cruzi beta-gal in NIH3T3, luminescence, 90 h; inhibition, % (no concentration beside the values);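 active means mean inhibition across valid replicates above about 55%, limit read from the data; inconclusive means mean below that limit but half or more replicates reach it; inactive means mean below it, under half of replicates reach it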;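 further: signal also drops with host cell toxicity which is not excluded here; 0% = plate median of DMSO wells and 100% = zero luminescence signal; higher percent means less beta-gal luminescence so fewer parasites; stock transfer was 50 nL into about 50 µL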
RanGTP-Imp inh: disruptors of Ran-importin-beta complex formation – biochemical, FRET, CFP-Ran, YFP-importin-beta, homogeneous, primary screen; hit rate 1.1% among 300,000; cell-free CFP-Ran/YFP-importin-beta FRET ratio; AID 2216; inhibition, % (concentration not given with the values);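 active means most replicates above 15%; inconclusive means exactly half above 15%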;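 further: 0% = DMSO wells and 100% = Ran loaded with GDP instead of GTP; wells of about 40 µL received 100 nL stock; the first replicate is given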
MLL AF4-AF9 inh: blocks AF4 peptide binding to human AF9 | hit rate 0.47% among 350,000 | P42568 | inhibition, % at 10 µM | AlphaScreen, biotin-AF4 peptide binding to FLAG-AF9;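 active means every replicate reaching a set inhibition limit, whatever the replicate mean, cut at about 25% in these data; inconclusive means mean inhibition reaches that limit but some replicates miss it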;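 further: 0% = plate neutral control median and 100% = total signal loss; the record names both 10 and 1 µM as test concentration; the first replicate is given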
Target sequence (P42568 whole entry, looked up): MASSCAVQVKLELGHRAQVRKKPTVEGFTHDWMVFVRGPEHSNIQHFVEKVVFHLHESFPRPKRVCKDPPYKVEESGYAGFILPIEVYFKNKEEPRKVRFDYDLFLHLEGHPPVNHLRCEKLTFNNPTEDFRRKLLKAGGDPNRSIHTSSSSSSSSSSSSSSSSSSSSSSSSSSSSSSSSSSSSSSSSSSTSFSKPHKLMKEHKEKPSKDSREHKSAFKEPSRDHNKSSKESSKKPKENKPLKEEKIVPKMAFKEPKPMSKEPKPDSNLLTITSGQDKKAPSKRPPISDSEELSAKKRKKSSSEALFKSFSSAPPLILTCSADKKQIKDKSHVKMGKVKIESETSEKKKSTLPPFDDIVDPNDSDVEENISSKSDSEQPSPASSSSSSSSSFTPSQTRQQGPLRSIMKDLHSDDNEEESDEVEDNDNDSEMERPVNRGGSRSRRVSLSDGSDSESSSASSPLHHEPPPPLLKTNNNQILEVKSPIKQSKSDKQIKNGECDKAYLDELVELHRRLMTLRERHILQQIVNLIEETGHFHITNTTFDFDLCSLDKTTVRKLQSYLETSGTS
A1 inh: inhibitors of the anti-apoptotic protein A1, read as caspase activation. hit rate 0.066% among 330,000. MEF A1-2A-BIM cells, Caspase-Glo 3/7 luminescence, 3 h; percent of clofoctol response, vehicle zero. caspase activation, % (test concentration not listed). AID 2462;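 active means over half of replicate activation scores above 10%, or exactly half above 10 with the replicate mean above 10; inconclusive means replicate mean below 10 yet half the replicates above 10; inactive means over half of replicates below 10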;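 further: wells of about 30 µL received 50 nL stock; many hits fall short of the cut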
Calb FLC: C. albicans growth modulation with fluconazole; C. albicans CaCi-2 (fluconazole-resistant clinical isolate) + fluconazole, Alamar Blue growth, 48 h; growth inhibition, % (concentration not given with the values); hit rate 0.57% among 300,000;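 active means most replicates above 75%; inconclusive means exactly half above 75%; inactive means most below 75%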;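 further: all wells also contain fluconazole at 8 µg/ml as a sub-toxic cotreatment; 0% = median of DMSO wells and 100% = median of geldanamycin control wells; wells of about 8 µL received 7.5 nL stock; the first replicate is given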
Beta cell apopt: beta cell apoptosis inhibition; INS-1E cytokine-induced death, ATP luminescence, 48 h; percent of positive-control rescue, neutral wells zero; protection from apoptosis, % (no concentration beside the values); hit rate 0.8% among 300,000; AID 435005;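 active means all replicates at 75% or more, or half of them and the mean; inconclusive means half reach 75% but not the mean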;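 further: 0% = cytokine-treated negative control wells and 100% = positive control rescue; higher means more ATP so stronger rescue from cytokine killing; wells of about 40 µL received 100 nL stock; the first replicate is given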
Vif TR-FRET: inhibitors of Vif binding to APOBEC3G peptide, primary screen, biochemical, TR-FRET, GST-Vif 1-94, biotin-A3G peptide, dose response retest (AID 1117319) | hit rate 0.57% among 260,000 | one-dose inhibition, %; IC50 in µM for titrated hits | TR-FRET GST-Vif / biotin-A3G peptide binding; higher % means a stronger effect; test concentration not given here; strong numbers were not always called active;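 active means above the screen mean plus three standard deviations and confirmed in dose response; inconclusive means results disagree or hit not tested in dose response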;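 further: Vif residues 1-94 fused to GST binding biotinylated APOBEC3G peptide 110-148; 0% = full assay without inhibitor and 100% = GST in place of GST-Vif; retest series ran down from 100 µM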
LANA-H2A inh: blocks KSHV LANA binding to histone H2A/H2B; cell-free LANA-H2A/H2B peptide, fluorescence polarization; inhibition, % (concentration not given with the values); hit rate 0.6% among 320,000; AID 2629; in the data active means inhibition mostly above about 10%, no sharp cut-off; inactive means mostly below about 6.7%;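 further: stock transfer was 7.5 nL into about 10 µL; 0% = median of vehicle wells and 100% = median of positive control wells; one replicate is shown; the record names a cut of 25% in any replicate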
Starred values were filed as active, the others as inactive; u = inconclusive; x = not tested or not shown.

SMILES	T cruzi repl	RanGTP-Imp inh	MLL AF4-AF9 inh	A1 inh	Calb FLC	Beta cell apopt	Vif TR-FRET	LANA-H2A inh
O=c1[nH]c(=O)n(C2CCCO2)cc1Br (stereo not drawn)	5	-2.0	x	0.2	-9	2	3%	-3.2
COc1ccc([N+](=O)[O-])cc1N(CC(=O)O)S(C)(=O)=O	-17	-1.2	-5.6	0.8	-6	-8	u	3.6
COc1ccc(/C=C/C(=O)c2ccc(Cl)cc2)c(OC)c1	11	20*	x	-0.3	-7	-4	-9%	0.8
CCN(CC)CCOC(=O)c1cccc(OC)c1	-8	2.0	x	0.2	1	2	-1%	5.4
Cc1cc2cc(CN(CC3CCCO3)C(=S)NCc3ccco3)c(=O)[nH]c2cc1C (stereo not drawn)	16	-2.9	4.1	1.3	33	-5	-18%	-3.0
Clc1ccc(/C=N/NC2=Nc3cccc4cccc2c34)cc1	13	u	x	-0.8	6	-2	x	x
CCN(CC)CCNC(=O)C(=O)NCC1OCCN1S(=O)(=O)c1cccs1 (stereo not drawn)	7	-0.3	18	-0.8	-18	-8	-2%	-11
CCc1ccccc1N1C(=O)C2C3C=CC(CC3)C2C1=O (stereo not drawn)	-1	0.8	-1.6	-0.3	4	x	-8%	-6.5
COc1cccc2cc(C(=O)OCC(=O)NCc3ccc4c(c3)OCO4)c(=O)oc12	5	1.2	-5.6	-2.2	16	1	-7%	0.3
C/C(=C/C(=O)N1CCc2ccccc21)C(=O)O	0	-0.3	1.7	1.1	-26	1	x	0.1
Cc1ccc(C(=O)CNc2cccc(Cl)c2)cc1	-7	-3.0	x	-0.2	-13	0	x	-3.3
Cc1cc(C)cc(N(CCC#N)C(=O)CN2C(=O)NC3(CCCC3)C2=O)c1	-7	3.9	-1.6	0.1	0	-4	x	3.4
COc1ccc(-n2cc(CN3CCC(OC)CC3)c(-c3cccc(F)c3)n2)cc1	18	u	2.5	0.5	-32	3	x	0.8
N#CCCN(C(=O)COC(=O)CNC(=O)C12CC3CC(CC(C3)C1)C2)c1ccccc1	-7	0.9	-15	0.9	0	-8	-2%	-0.9
CCOc1ccc(N2C(=O)CC(Cc3cc(C)cc(C)c3)C2=O)cc1 (stereo not drawn)	-12	1.2	-11	1.7	16	6	x	0.0
Cc1ccc(/C=C/C(=O)O)cc1S(=O)(=O)NCCCO	-21	4.8	x	0.1	-8	-6	3%	1.8
Fc1cccc(NC(=S)NCc2ccccc2Cl)c1	7	-0.5	x	-0.2	-3	-3	11%	-0.9
CCOC(=O)c1c(S(=O)(=O)N(C)C2CCCCC2)c(C)n(C)c1C	6	1.6	1.6	-0.3	-5	x	3%	3.8
CCOc1ccc(NC(=O)COc2ccc(C(=O)N3CCC(C(N)=O)CC3)cc2OC)cc1	-11	1.6	-0.8	-1.0	-5	-2	0%	2.3
COc1cc(NC(=O)Cc2cccs2)c(C(=O)O)cc1OC	-27	0.4	-4.5	1.0	-3	-2	-2%	-5.5
CN1CCN(CC(O)COc2ccc(S(=O)(=O)N3CCOCC3)cc2)CC1 (stereo not drawn)	x	x	1.5	-0.4	x	6	x	-4.6
COc1ccc(Br)cc1C(=O)NC(=S)Nc1c(C)n(C)n(-c2ccccc2)c1=O	-1	1.7	-3.7	-0.1	0	5	x	-4.3
Cc1cccc(N(Cc2ccccc2)C(=O)c2ccccc2S(C)(=O)=O)c1	11	0.3	2.3	-0.8	3	0	x	-50
Cc1cc(Oc2ccccc2)nc(SCC(=O)Nc2ccc(Cl)cc2Cl)n1	5	3.1	x	0.1	7	-4	-7%	-0.6
COC(=O)c1ccccc1NC(=O)c1onc(C)c1Cl	-4	2.3	-0.9	x	-1	x	-13%	x
CC(=O)Nc1cccc(NC(=O)C2CCCN2C(=O)Nc2cccc(F)c2)c1 (stereo not drawn)	-9	-1.3	x	0.9	-18	-5	-3%	1.3
CC(=O)Nc1ccccc1C(=O)C(=O)Nc1ccccc1	-11	-2.8	-8.4	0.3	-5	-9	x	4.6*
CC(C)C(=O)Nc1ccc(NC(=O)c2ccc3c(c2)OCO3)cc1	-5	-4.8	0.9	-7.0	3	x	x	-4.0
Cc1c(Cl)cccc1NC(=S)Nc1ccc2[nH]c(=O)[nH]c2c1	-2	4.1	1.7	0.2	0	-2	14%	-0.4
Cc1nn(C)c(C)c1/C=C/C(=O)O	-22	0.2	0.4	0.1	5	-3	28%	-13
CSCCC(NS(=O)(=O)c1cc(C(=O)O)ccc1Cl)C(=O)O (stereo not drawn)	-7	-3.6	-2.5	0.3	-5	-5	11%	-2.4
Cc1cccc(C)c1NC(=O)CN(C)C(=O)/C=C/c1cccs1	5	1.0	0.4	0.3	-12	-1	2%	2.0
CC(C)CCNC(=O)CNC(=S)N(CCCN1CCOCC1)Cc1cccs1	9	3.5	x	-0.2	-3	-1	x	0.2
CC1CCN(Cc2c(C(=O)N/N=C/c3ccc(C(F)(F)F)cc3)nnn2-c2nonc2N)CC1	10	0.5	-5.6	0.8	2	9	x	3.2
COc1ccccc1N1C(C)=CC(=C(C#N)c2nc3ccccc3s2)C=C1C	u	14	0.5	0.3	8	128*	x	0.9
O=C1CC(N2CCN(c3ccc(S(=O)(=O)N4CCCC4)cc3)CC2)C(=O)N1c1ccc(F)cc1 (stereo not drawn)	-24	3.2	x	-0.5	-16	6	-10%	-5.3
O=C(COc1ccc(Cl)cc1Cl)NCC(=O)N/N=C/c1c[nH]c2ccccc12	6	-2.0	1.8	0.0	4	-4	u	-4.8
COc1cccc(/C=N/n2c(-c3cc(C)[nH]n3)n[nH]c2=S)c1OC	-19	-1.0	-7.0	-0.7	7	0	-3%	7.8
Cc1cc(C)n2c(nc3ccccc32)c1C(=O)NN	-14	1.9	-0.4	0.0	0	-3	13%	-2.6
Cc1csc2nc(O)c(C(=O)NCC3CCCO3)c(=O)n12 (stereo not drawn)	-6	1.2	-2.0	-1.1	10	1	6%	-8.8
CCN(CC(=O)Nc1c(F)cccc1F)C(=O)CNC(=O)c1ccc2c(c1)OCO2	-10	-2.8	11	0.9	-5	1	-2%	-6.4
CC(C)(C)Nc1nc(Cl)nc(NC(C)(C)C)n1	-2	2.4	x	-0.5	0	5	-6%	-0.5
CC(OC(=O)c1ccc2c(c1)C(=O)N(Cc1ccncc1)C2=O)C(=O)Nc1cccc(Cl)c1Cl (stereo not drawn)	-11	-0.6	x	0.1	1	-11	-15%	x
CC1(C)CC2(CC(c3ccc(F)cc3)c3ccc(O)cc3O2)NC(=S)N1 (stereo not drawn)	10	4.4	-2.4	0.7	6	14	x	-15
COc1ccc(S(C)(=O)=O)cc1S(C)(=O)=O	-3	6.4	x	1.4	-6	-10	17%	-5.2
COc1ccccc1N=C1SCC(=O)N1Cc1ccco1	6	5.7	0.1	-0.2	5	-1	3%	-2.3
O=C(Nc1cnc2ccccc2c1)c1ccco1	-3	-1.1	x	-6.1	-3	2	4%	2.1
COCCN(C(=O)CSc1nnc(-c2ccco2)n1C)c1c(N)n(CC(C)C)c(=O)[nH]c1=O	x	x	-15	-0.2	x	-2	2%	-9.6
O=C1CCN(Cc2ccccc2)CCN1[C@H](COc1ccccc1)c1ccccc1	2	6.2	6.4	0.3	6	0	x	-1.4
OC(CN1CCN(c2ccccc2)CC1)c1ccc2c(c1)CCN2 (stereo not drawn)	6	1.6	-5.3	0.8	0	-4	67%	2.1

(more compounds)
SMILES	T cruzi repl	RanGTP-Imp inh	MLL AF4-AF9 inh	A1 inh	Calb FLC	Beta cell apopt	Vif TR-FRET	LANA-H2A inh
CC(C)OCCCNC(=O)c1sc(=S)n(C)c1N	-13	2.1	x	-0.7	1	1	-14%	0.9
COc1ccc(C(=O)N=C2SC3CS(=O)(=O)CC3N2c2ccc(C(C)=O)cc2)cc1 (stereo not drawn)	16	1.0	1.9	0.7	-3	2	x	-0.7
O=C(OC1CCOC1=O)c1cc(Cl)ccc1[N+](=O)[O-] (stereo not drawn)	-6	2.9	-0.3	-1.9	4	x	x	0.2
CC[C@@H](C)[C@H](NC(=O)Cc1c(C)c2cc3c(C)c(C)oc3c(C)c2oc1=O)C(=O)O	-6	u	-1.0	1.5	3	0	-1%	-2.2
COc1ccccc1NC(=O)C(=O)NNC(=O)c1ccco1	15	1.5	x	-0.2	-9	1	-1%	5.5
COc1cccc(OC)c1C(=O)NC(=S)NCc1ccco1	11	-2.1	-0.6	-0.3	-9	-10	7%	3.0
Cc1nc2ccccn2c1-c1csc(Nc2cccc(C(=O)O)c2)n1	-5	1.3	-0.5	-0.6	-3	0	2%	-3.2
Cc1ccc(-c2nnc(N3CCN(S(C)(=O)=O)CC3)c3ccccc23)cc1	17	2.9	x	0.5	6	-2	-2%	-1.1
O=C(CSc1nc(-c2ccc(Cl)cc2)[nH]c(=O)n1)Nc1cccc(Cl)c1	-15	-2.3	1.1	0.6	-8	-11	26%	-0.9
COc1ccc(NC(=O)C2CC(=O)N(c3ccccc3C)C2)c(OC)c1 (stereo not drawn)	-9	-0.8	1.7	-0.2	-3	x	x	-1.6
CC(=O)Nc1c2c(nn1-c1ccccc1C)CSC2	-1	1.7	2.1	1.4	10	-5	x	1.8
COc1ccc(NC(=O)CSc2nnc(CNc3ccc(C)cc3)n2C)cc1	14	-0.7	-0.2	-0.5	14	4	3%	-0.5
Cc1ccc(NC(=O)CSc2nc3nn(-c4ccccc4)c(=O)c-3c3n2CCCCC3)cc1F	x	x	4.0	0.7	x	-1	x	7.4
O=C(Nc1ccccc1C(=O)O)c1ccc(CN2C(=O)c3ccccc3C2=O)cc1	4	-1.6	-1.7	-0.2	3	-7	x	9.7
CC(=O)N1CCC(N(C(=O)Nc2ccc(C)c(C)c2)C2CCCC2)CC1	-5	-6.0	x	0.0	-13	-4	15%	0.5
CC1CCCC(NC(=O)COC(=O)Cc2c[nH]c3ccccc23)C1C (stereo not drawn)	-15	-2.5	-1.9	-0.4	8	-8	2%	-3.7
COC(=O)C1CCN(C(=O)/C=C/c2ccccc2)CC1	-16	-0.2	-12	0.9	29	-3	-2%	2.0
CC(=O)c1cc(C#N)c(NCCCN(C)C)nc1C	31	3.7	0.5	0.6	-1	-3	12%	4.3
N#Cc1ccc(C(=O)Nc2ccn(-c3ccccc3)n2)cc1	10	-4.6	2.8	-0.1	19	-4	-8%	-2.6
Cc1ccccc1/C=N/Nc1ccnc2cc(Cl)ccc12	60*	23*	-9.0	-1.1	7	95*	20%	-8.9
Cc1ccc(C)c(NC(=O)NNC(=O)c2cc3ccccc3cc2O)c1	-3	-1.2	-2.6	-1.3	-1	-12	-5%	-10
COc1ccc(NC(=O)CS(=O)(=O)c2ccc(Br)cc2)cc1	-8	-2.2	0.2	0.5	0	x	-7%	-2.9
Cc1cc(C)c(S(=O)(=O)NC(C)C)c(C)c1-n1cnnn1	-17	5.2	-1.0	-0.1	-1	-1	16%	10
COc1cccc(CNc2nc3nc4c(c(=O)n3[nH]2)CCC4)c1	-11	3.0	x	0.8	18	-5	-5%	0.5
